# High-throughput results from PubChem BioAssay.
# AmpC inh no det = AmpC beta-lactamase inhibition, detergent-free assay. P00811. AmpC nitrocefin hydrolysis, absorbance 480 nm, no detergent; potencies from a single point are estimates. Potency, µM (series often up to 28.7 µM), for the others: at the top dose activity change, negative = inhibition. actives 1.8% (n = 71,000); active = falling curve, for most hits resting on a single point; inconclusive = weak or doubtful change; inactive = flat or rising curve; also: % of control where 0% means no effect; about half of the hits show no inhibition at the top dose; a quarter of the inactives give rising signals
# Target sequence (P00811 whole entry, looked up): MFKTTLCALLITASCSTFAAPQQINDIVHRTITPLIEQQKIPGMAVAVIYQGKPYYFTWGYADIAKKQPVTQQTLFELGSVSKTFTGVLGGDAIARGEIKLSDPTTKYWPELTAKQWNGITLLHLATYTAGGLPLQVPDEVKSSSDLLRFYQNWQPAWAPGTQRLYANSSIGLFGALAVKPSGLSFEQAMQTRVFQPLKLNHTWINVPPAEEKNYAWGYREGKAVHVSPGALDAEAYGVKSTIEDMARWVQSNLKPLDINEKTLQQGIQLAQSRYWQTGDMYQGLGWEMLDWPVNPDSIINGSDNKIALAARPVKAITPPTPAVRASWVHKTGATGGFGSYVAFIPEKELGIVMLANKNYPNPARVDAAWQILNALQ
#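 AmpC, 20 mM phosphate pH 7.0; 15 min cpd preinc, RT; start with nitrocefin (800 uM stock); A480 kinetic read, 20 s intervals, 4 min. No-enzyme wells = negative control.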
# * hit, by the source's call; ? = inconclusive; [ ] = remark or other dose. Potency is read from the fitted curve at half-maximal effect. Not all compounds are listed; count on the stated rates, not on these rows.
SMILES,AmpC inh no det
CCOC(=O)c1sc2ncn(C(CC)C(=O)OC)c(=O)c2c1C (stereo not drawn),46%
CCOC(=O)N1CCN(C(=O)CN2C(=O)COc3ccc(C(C)(C)C)cc32)CC1,79%
CCOC(=O)c1nc2ccccc2s1,-10%
COC(=O)[C@@]1(Cc2ccccc2)C=C[C@@H](C)N1C(C)=O,6%
O=C(O)[C@@H](O)[C@@H](O)[C@@H]1[O][Sb][O][C@@H]1CO,6%[5.75 µM]
CC(=O)N1CCN(c2ccccc2NC(=O)COc2cc(C)ccc2C(C)C)CC1,142%
CCCn1nnc(NC(=O)c2ccc(Br)cc2)n1,2%
CO[C@@H]1/C=C\O[C@]2(C)Oc3c(C)c(O)c4c(O)c(c(/C=N\N5CCN(C)CC5)c(O)c4c3C2=O)NC(=O)/C(C)=C\C=C/[C@H](C)[C@H](O)[C@H](C)[C@H](O)[C@H](C)[C@H](OC(C)=O)[C@@H]1C,114%
c1ccc(-c2ccc(-c3nc(-c4ccccn4)no3)cc2)cc1,44%
Cc1ccc(NC(=O)C2CCCNC2=O)nc1 (stereo not drawn),-3%
Cc1ccc(-c2ccc(CCC(=O)O)n2C(C)C)cc1,40%
OC(COc1ccc(Cl)cc1)CN1CCCCC1 (stereo not drawn),-2%
COc1cc(C(=O)OC(C)CN2CCOCC2)cc(OC)c1OC (stereo not drawn),10%
CN(C)c1ccc(NC(=O)CN2C(=O)CN=C(c3ccccc3)c3ccccc32)cc1,56%
O=C(CNS(=O)(=O)c1cccs1)N1CCCC1,-9%
COc1ccccc1CNc1nc2nc(C)c(C)c(=O)n2[nH]1,-9%
Cn1c(CNc2cccc(Cl)c2)nnc1SCC(=O)OC1CCCCC1,53%
COc1ccc(NC(=O)c2cc3n(n2)C(C(F)(F)F)CC(c2ccc4c(c2)OCO4)N3)cc1OC (stereo not drawn),94%
COc1ccc(CC(CC(=O)O)C(=O)Nc2ccc(OC)cc2)cc1 (stereo not drawn),-4%
Cc1c(NC(=O)COC(=O)Cc2ccc(Cl)cc2)c(=O)n(-c2ccccc2)n1C,31%
O=C(O)CCC(=O)OC1CC2CCC1C2 (stereo not drawn),-10%
O=C1NC(c2ccco2)Nc2sc3c(c21)CCN(Cc1ccccc1)C3 (stereo not drawn),21%
Cc1cccc(N(C(=O)Cn2nnc3ccccc32)C(C(=O)NCc2ccco2)c2ccncc2)c1C (stereo not drawn),77%
CC(=O)N[C@H]1[C@@H](O[C@@H](C)C(=O)O)[C@H](O)[C@H](CO)O[C@@H]1O,-3%[12.8 µM]
COC(=O)c1ccc(C(NC(=O)OCc2ccccc2)/C(F)=C/[C@@H](C)C(=O)N(C)Cc2cccnc2)cc1 (stereo partly drawn),121%
O=C(COc1ccccc1Cl)NCc1ccco1,7%
Cc1ccc(-c2nc3ncccn3c2Nc2ccc3c(c2)OCO3)o1,5%
CC(C)C[C@@H](CC(=O)N[C@@H](CCC(=O)O)CC(=O)O)NC(=O)[C@@H]1CCCC[C@H]1NC(=O)C[C@@H](NC(=O)C[C@H](CO)NC(=O)[C@@H]1CNCC[C@H]1N)C(C)C,17%
CCC(=O)NCc1nc2ccccc2n1Cc1ccccc1F,-8%
C[C@H]1C=C2C=C[C@H](C)[C@H](CC[C@@H]3C[C@@H](O)CC(=O)O3)[C@H]2[C@@H](OC(=O)[C@@H](C)CCO)C1,131%
COc1cccc(C2CC(c3ccc(Cl)cc3)n3nc(N)nc3N2)c1 (stereo not drawn),51%
CCc1nnc(NC(=O)CSc2nnc(CSc3nc(C)cc(C)n3)n2C)s1,26%
COc1cc(-c2nc(-c3ccc(Br)o3)no2)cc(OC)c1OC,4µM*[single pt active]
COC(=O)c1sccc1NC(=O)c1cccnc1,1%
Cc1cc(NS(=O)(=O)c2ccc(-c3ccccc3)cc2)no1,?
N#Cc1c(N)oc(-c2cccs2)c1-c1cccs1,-25%
CCCn1c(C)nc2c(NCCCCN(CC)CC)nc(C)nc21,28%
CCOC(=O)c1cc2sccc2n1CC(=O)Nc1ccc(OC)cc1OC,49%
O=C(CSc1nc2c(c(=O)n1-c1ccc(Br)cc1)SCC2)NCC1CCCO1 (stereo not drawn),30%
Cc1ccc(NC(=O)C2CCN(S(=O)(=O)c3cccc4cccnc34)CC2)nc1,18%
CC(=O)Nc1ccc2nc(-c3cccs3)[nH]c2c1,-18%
CC(C)C(OC(=O)c1cc2occc2n1C)C(=O)NCc1ccc2c(c1)OCO2 (stereo not drawn),27%
O=C(c1cnc(N2CCN(c3ncccn3)CC2)c2ccccc12)N1CCN(c2ncccn2)CC1,141%
O=C(C1CCCN1S(=O)(=O)c1cccc2cccnc12)N1CCN(c2ccccc2)CC1 (stereo not drawn),96%
Cc1ccc(S(=O)(=O)NCCC(=O)N2CCN(Cc3ccccc3)CC2)cc1,65%
COc1ccc(-c2nc3nc(C)c(Cc4ccccc4)c(=O)n3[nH]2)cc1,-23%
Cc1ccc(-n2nc(C)c3c2NC(=O)CSC3c2ccc3c(c2)OCO3)cc1 (stereo not drawn),-12%
CC(=O)Nc1cccc(N(C)C)c1,6%
COC(=O)c1ccc(NC(=O)CCNS(=O)(=O)c2cccc3nonc23)cc1,-11%
c1ccc2c(c1)nc(NCCN1CCOCC1)c1nncn12,0%
# More compounds follow:
SMILES,AmpC inh no det
NC[C@@H](CC(=O)O)c1ccc(Cl)cc1,6%
O=C(c1ccc2c(c1)OCO2)N(CC1CCCO1)C1(C(=O)NC2CCCC2)CCCCC1 (stereo not drawn),39%
CC(=O)NC(CC(=O)NCC(c1ccco1)N(C)C)c1ccccc1 (stereo not drawn),18%
Cc1ccc(-c2[nH]nc3c2C(c2cccnc2)C(C#N)=C(N)O3)cc1 (stereo not drawn),-6%
CCCN1C(=O)c2cc(C(=O)NCc3ccc(OC)cc3)ccc2C1O (stereo not drawn),3.2µM*[single pt active]
Cc1cccc2cc(COC(=O)COc3ccccc3)c(=O)[nH]c12,20%
Cc1oc(-c2ccc(Cl)cc2)nc1CN1CCCC(C(=O)NCc2ccccn2)C1 (stereo not drawn),132%
COc1ccc(CNc2ncnc3ccc(-c4cccnc4)cc23)c(OC)c1,107%
COc1cc(CN2CCC(C(=O)N3CCC(C)CC3)CC2)cc(Br)c1O,27%
COc1ccc2c3c(cccc13)NN=C2C,4%
CCOC(=O)CSC1=C(C#N)C(c2ccc(C)s2)CC(=O)N1 (stereo not drawn),-1%
Cc1ccc(CS(=O)(=O)CCC(=O)NCCCN2CCCC2=O)cc1,2%
CCN1CCc2c(sc(N)c2C#N)C1,4%
Clc1ccc(OCc2nnc(-c3ccccc3Br)o2)c(Cl)c1,-5%
CCOCC(=O)N1CCN(c2ccc(F)cc2)CC1,8%
Cc1c(OCC(=O)OC(C)(C)C)ccc2c3c(c(=O)oc12)CCC3,53%
N[C@@H](CC(=O)O)C(=O)O,3%
COc1ccccc1N1CCN(C(=O)C2CCCO2)CC1 (stereo not drawn),16%
Cc1ccnc2nc(C(=O)OCCOc3cccc(Br)c3)nn12,66%
CC(Oc1cccc(Cl)c1)C(=O)Nc1cc(=O)n(C)c(=O)n1C (stereo not drawn),30%
CCn1c(=O)cc(O)c2ccccc21,-10%
COc1ccccc1CN1CC2(CCN(S(C)(=O)=O)CC2)C1,24%
Cc1cnc(CNc2ncnc3ccc(-c4ccccc4Cl)cc23)cn1,130%
C=CCSc1nnc2c(n1)OC=Nc1ccccc1-2,-6%
c1ccc(CCN2CN=C(Nc3nc4ccccc4o3)NC2)cc1,12%
CCOC(=O)N1CCN(C(=O)CSc2nnc(-c3ccc(C)c(C)c3)o2)CC1,20%
Cc1cc(C(=O)Nc2sc3c(c2C#N)CCC(C)C3)no1 (stereo not drawn),-4%
COc1ccc(NC(=O)N2CC[C@@]3(CCCN(C(=O)c4cc(C(F)(F)F)cc(C(F)(F)F)c4)C3)C2)cc1,62%
COc1ccc(S(=O)(=O)n2cnc3cc(C)c(C)cc32)cc1,4%
COc1ccc(-c2c(NC(C)=O)n(C)c3ccccc3c2=O)cc1,-19%
CCOc1ccccc1C(=O)Nc1ccc(S(=O)(=O)N2CCOCC2)cc1,87%
O=C(COC(=O)CCN1C(=O)c2ccccc2C1=O)Nc1ccc(S(=O)(=O)N2CCCC2)cc1,10%
Nc1ccn(-c2ccc(Cl)cc2)c(=O)c1,-8%
CCCCCn1c(=O)[nH]c2cc(C(=O)NCCCN(CC)CC)ccc2c1=O,-2%
O=C1NCC(O)=C1C=NCCCO,4%
COc1cc(/C=c2\sc3nc(-c4ccncc4)nn3c2=O)ccc1OC(C)=O,31%
COC(=O)c1ccc(CSc2ccc3nnc(-c4ccc(OC)c(OC)c4)n3n2)o1,130%
CC(C)(C)c1cc(CCC(=O)N2CCNCC2)c(C(C)(C)C)cc1O,72%
O=C(NCC1CCCO1)C1CCCN(S(=O)(=O)c2cccc3nsnc23)C1 (stereo not drawn),0%
Cc1cc(C)n2nc(C(=O)NCc3ccco3)nc2n1,-10%
O=C1C=C(NCc2ccccc2)C2(CCCCC2)O1,1%
O=C1Nc2ccccc2C(O)(C(=O)N2CCCCC2)N1c1ccccc1 (stereo not drawn),1%
Cc1onc(-c2ccccc2)c1C(=O)Oc1cccnc1,3%
Cc1ccc(C)c(N=C2NC(=O)CS2)c1,-5%
CC(=NCCN1CCOCC1)c1c(O)n(C2CCCCC2)c(=O)[nH]c1=O,36%
CC(=O)c1cnc2nc(C(F)(F)F)nn2c1C,3%
COCCNC(=O)CN1C(=O)CSc2ncccc21,-22%
O=C(NCc1ccco1)c1cc2ccccc2o1,-10%
CCCC(=O)c1cc2ccccc2oc1=O,11%
COC(=O)CSc1nnc(-c2ccoc2C)n1-c1ccc(OC)cc1,34%
# Next section.
SMILES,AmpC inh no det
O=C1Nc2ccccc2OC1CC(=O)N1CCCC1 (stereo not drawn),4µM*[single pt active]
Cn1ncc(N)c1C(=O)Nc1cccc(C(F)(F)F)c1,11%
CCn1c2ccccc2c2nc3ccccc3nc21,112%
C[C@@H](C(=O)Nc1ccc2ccccc2c1)[C@H]1C[C@]1(C)[C@H](NC(=O)c1cnccn1)c1ccccc1,84%
Cc1c(NC(=O)c2cc(-c3cccs3)on2)c(=O)n(-c2ccccc2)n1C,-10%
N#Cc1c(NCCCO)nc(NCc2ccccc2)c2c1CCN(Cc1ccccc1)C2,56%
Cc1cc(C)n(C(=O)c2ccncc2)n1,4%
O=c1cnc2cnc(Nc3ccccc3)nc2n1Cc1cccs1,9%
CC(=O)N(Cc1ccco1)C1(C(=O)NC2CCCCC2)CCCCC1,24%
COc1ccc(-n2c(=O)c(-c3ccc(F)cc3)nc3cnc(OC)nc32)cc1,18%
CC(C)C[C@@H](CC(=O)N[C@@H](CCCN)CC(=O)N[C@@H]1CCNC[C@H]1C(=O)N[C@H](CC(=O)N[C@@H](CCC(=O)O)CC(=O)O)Cc1ccccc1)NC(=O)[C@@H]1CNCC[C@H]1N,48%
COc1cc(NS(=O)(=O)c2cccc3nsnc23)c(C(=O)O)cc1OC,-4%
CC(Sc1nnc(C2CCCCC2)n1N)C(=O)NCc1ccc2c(c1)OCO2 (stereo not drawn),14%
COc1ccc(-c2nnc(SCc3ncc(-c4ccccc4)o3)o2)cc1,12%
Cn1c(C(=O)N2CCCC(C(=O)NCc3ccc4c(c3)OCO4)C2)cc2sccc21 (stereo not drawn),96%
CN1C(=O)C(O)(c2sc(N)nc2-c2ccccc2)c2ccccc21 (stereo not drawn),8%
FC(F)(F)c1cc(-c2ccco2)nc(-n2nnc3ccccc32)n1,17%
COc1ccc(OC)c([C@H](O)[C@H](C)N)c1,-4%[12.8 µM]
CN1CCN(c2ccccc2NC(=O)c2ccc(-c3ccccc3)cc2)CC1,85%
Cc1noc(C)c1C(=O)N1CCN(Cc2ccc3c(c2)OCO3)CC1,-3%
COc1ccc(C2c3c(oc4ccccc4c3=O)C(=O)N2c2ccccn2)cc1OC (stereo not drawn),-4%
O=C(CCN1C(=O)C2CC=C(Cl)CC2C1=O)Nc1ccccc1O (stereo not drawn),-3%
CC(=O)NC1CC2CCCC(C1)N2S(=O)(=O)c1cccc(F)c1 (stereo not drawn),9%
CCCC(=O)Nc1ccc(Cl)c(NC(=O)CC)c1,-4%
COc1ccc(CCNC(=O)c2c(O)c3c([nH]c2=O)CCCC3)cc1OC,12%
Cc1ccc(Nc2cc(C)nc3nnnn23)cc1,-3%
NC(=O)C1(N2CCCCC2)CCN(CC(=O)Nc2ccc(Oc3ccccc3)cc2)CC1,117%
O=C(Cn1cnc2c(nnn2-c2cccc(Cl)c2)c1=O)N1CCCC1,13%
CCCn1nnc(NC(=O)COc2ccc(C3CCCCC3)cc2)n1,79%
N#CC1=C(N)OC2=C(C(=O)CCC2)C1C1CC=CCC1 (stereo not drawn),8%
N#C/C(C(=O)NCc1ccco1)=C1/SC=C(c2ccccc2)N1c1ccccc1,-1%
